Compound activity as filed in PubChem.
MLL AF4-AF9 inh = inhibitors of AF4 peptide binding to AF9, primary screen, biochemical, AlphaScreen, biotin-AF4 peptide, FLAG-AF9, single point | Protein AF-9 (Homo sapiens), P42568 | inhibition, % at 10 µM | 350,000 compounds, 0.47% hits | AID 651704, 2012;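 active = every replicate reaching a set inhibition limit, whatever the replicate mean, cut at about 25% in these data; inconclusive = mean inhibition reaches that limit but some replicates miss it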;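 also: 0% = plate neutral control median and 100% = total signal loss; the record names both 10 and 1 µM as test concentration; the first replicate is given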
Target sequence (P42568 whole entry, looked up): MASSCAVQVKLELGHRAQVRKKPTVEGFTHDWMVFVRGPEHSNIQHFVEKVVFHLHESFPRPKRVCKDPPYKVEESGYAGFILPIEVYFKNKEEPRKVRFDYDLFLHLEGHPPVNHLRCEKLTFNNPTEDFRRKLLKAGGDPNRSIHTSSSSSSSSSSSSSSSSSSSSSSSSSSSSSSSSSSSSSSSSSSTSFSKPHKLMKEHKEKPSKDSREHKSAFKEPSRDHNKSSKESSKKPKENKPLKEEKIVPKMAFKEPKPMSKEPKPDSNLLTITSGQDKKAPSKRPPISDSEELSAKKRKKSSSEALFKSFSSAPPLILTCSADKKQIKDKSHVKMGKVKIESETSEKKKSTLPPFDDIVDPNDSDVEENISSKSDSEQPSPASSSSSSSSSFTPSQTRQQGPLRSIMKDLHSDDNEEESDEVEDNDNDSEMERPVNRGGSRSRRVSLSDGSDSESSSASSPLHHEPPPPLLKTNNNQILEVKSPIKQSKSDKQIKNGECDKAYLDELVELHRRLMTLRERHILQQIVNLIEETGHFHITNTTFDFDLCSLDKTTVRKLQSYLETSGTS
Beta cell apopt = inhibitors of cytokine-induced beta cell apoptosis, primary screen, luminescence. INS-1E cytokine-induced death, ATP luminescence, 48 h; percent of positive-control rescue, neutral wells zero. protection from apoptosis, % (concentration not given with the values). 300,000 compounds, 0.8% hits. AID 435005, 2010;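 active = all replicates at 75% or more, or half of them and the mean; inconclusive = half reach 75% but not the mean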;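 also: 0% = cytokine-treated negative control wells and 100% = positive control rescue; higher means more ATP so stronger rescue from cytokine killing; wells of about 40 µL received 100 nL stock; the first replicate is given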
Bfl-1 A1 inh = caspase 3/7 activation in MEF A1-2A-BIM cells, primary screen, A1 inhibitor project, cell-based, luminescence, HTS; Caspase-Glo 3/7 luminescence, 3 h; percent of clofoctol response, vehicle zero; caspase activation, % (test concentration not listed); 330,000 compounds, 0.066% hits; AID 2462, 2010;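 active = over half of replicate activation scores above 10%, or exactly half above 10 with the replicate mean above 10; inconclusive = replicate mean below 10 yet half the replicates above 10; inactive = over half of replicates below 10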;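 also: wells of about 30 µL received 50 nL stock; many hits fall short of the cut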
Vif A3G = inhibitors of Vif binding to APOBEC3G peptide, primary screen, biochemical, TR-FRET, GST-Vif 1-94, biotin-A3G peptide, dose response retest (AID 1117319). Virion infectivity factor (Human immunodeficiency virus type 1 group M subtype B (isolate …. TR-FRET GST-Vif / biotin-A3G peptide binding; higher % means a stronger effect; test concentration not given here; strong numbers were not always called active. inhibition, %; hits with a dose series show IC50 in µM. 260,000 compounds, 0.57% hits;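 active = above the screen mean plus three standard deviations and confirmed in dose response; inconclusive = results disagree or hit not tested in dose response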;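 also: Vif residues 1-94 fused to GST binding biotinylated APOBEC3G peptide 110-148; 0% = full assay without inhibitor and 100% = GST in place of GST-Vif; retest series ran down from 100 µM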
RanGTP-Imp inh = inhibitors of RanGTP-importin-beta interaction, primary screen, biochemical, FRET, CFP-Ran, YFP-importin-beta, homogeneous; cell-free CFP-Ran/YFP-importin-beta FRET ratio; 300,000 compounds, 1.1% hits; Ran GTPase (GTP-bound) - importin-beta complex; inhibition, % (concentration not given with the values); AID 2216, 2009;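 active = most replicates above 15%; inconclusive = exactly half above 15%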;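 also: 0% = DMSO wells and 100% = Ran loaded with GDP instead of GTP; wells of about 40 µL received 100 nL stock; the first replicate is given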
LANA-H2B inh = blockers of LANA interaction with H2A/H2B – biochemical, FP readout, HTS, primary screen. Protein LANA1 (Human herpesvirus 8 type P (isolate GK18)), Q9QR71. cell-free LANA-H2A/H2B peptide, fluorescence polarization. inhibition, % (no concentration beside the values). 320,000 compounds, 0.6% hits; in the data active = inhibition mostly above about 10%, no sharp cut-off; inactive = mostly below about 6.7%;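 also: stock transfer was 7.5 nL into about 10 µL; 0% = median of vehicle wells and 100% = median of positive control wells; one replicate is shown; the record names a cut of 25% in any replicate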
T cruzi repl = inhibitors of intracellular T. cruzi growth, primary screen, luminescence, NIH3T3 host cells. AID 1885, 2009. 300,000 compounds, 1.4% hits. inhibition, % (test concentration not listed). T. cruzi beta-gal in NIH3T3, 90 h;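 active = mean inhibition across valid replicates above about 55%, limit read from the data; inconclusive = mean below that limit but half or more replicates reach it; inactive = mean below it, under half of replicates reach it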;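 also: signal also drops with host cell toxicity which is not excluded here; 0% = plate median of DMSO wells and 100% = zero luminescence signal; higher percent means less beta-gal luminescence so fewer parasites; stock transfer was 50 nL into about 50 µL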
Calb FLC = C. albicans growth inhibition with fluconazole, primary screen, CaCi-2 strain, Alamar Blue fluorescence | C. albicans CaCi-2 (fluconazole-resistant clinical isolate) + fluconazole, 48 h | growth inhibition, % (test concentration not listed) | 300,000 compounds, 0.57% hits | AID 1979, 2009;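 active = most replicates above 75%; inconclusive = exactly half above 75%; inactive = most below 75%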;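 also: all wells also contain fluconazole at 8 µg/ml as a sub-toxic cotreatment; 0% = median of DMSO wells and 100% = median of geldanamycin control wells; wells of about 8 µL received 7.5 nL stock; the first replicate is given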
* hit, by the source's call; ? = inconclusive; · = not tested or not shown; & = joins results of further samples.

cpd	SMILES	MLL AF4-AF9 inh	Beta cell apopt	Bfl-1 A1 inh	Vif A3G	RanGTP-Imp inh	LANA-H2B inh	T cruzi repl	Calb FLC
1	CCC1CCCCN1CCCNC(=O)c1ccc(N2CCCC2=O)cc1 (stereo not drawn)	1.0	-0.7	-0.8	20.2%	6.5	6.7	-14.9	-1.0
2	Cc1nc(SCC(=O)NCc2ccccc2)c2oc3ccccc3c2n1	·	-0.7	-0.4	-200.9%	-0.1	-1.2	-0.4	-3.6
3	Cc1ccc(Cn2nnc3c(=O)n(Cc4ccccc4C)cnc32)cc1	2.4	8.2	·	-3.8%	-1.5	-4.2	10.4	-5.5
4	O=C(NCc1ccco1)C1CCN(C(=O)c2ccc([N+](=O)[O-])cc2)CC1	-0.8	·	0.0	·	6.6	9.0	-6.4	-5.9
5	CCN(CC)CCN1C(=O)C(O)=C(C(=O)c2cc3cccc(OC)c3o2)C1c1ccc(F)cc1 (stereo not drawn)	-0.3	5.0	0.1	·	6.8	0.0	0.4	-6.7
6	Cc1cc(-c2nn(C)c(=O)c3ccccc23)ccc1CNC(=O)NC1CCCCC1	0.5	5.3	-0.3	·	1.0	6.5	10.1	28.2
7	CCCNC(=S)N1CC2(C)CN(C(=O)C(=O)OCC)CC(C)(C1)C2=O	-0.9	-6.6	-0.4	2.5%	-2.0	-5.2	-11.9	-7.9
8	Cc1ccc(S(=O)(=O)NCCC(c2ccccc2)c2ccco2)cc1 (stereo not drawn)	·	-1.4	0.2	19.4%	-3.7	0.6	1.9	11.4
9	COc1ccc(-c2oc3ccc(-c4ccc5c(c4)OCO5)cc3c2-c2ccc(OC)nc2)cc1	-0.2	4.1	-0.8	·	3.2	4.4	34.4	0.7
10	COc1ccc(OCc2cc(C(=O)N(C)Cc3nnc(C)o3)no2)c(Cl)c1	-7.4	5.1	-2.9	·	-8.4	6.3	-11.0	-3.2
11	C=CCOc1cccc(C(=O)NC(c2ccccc2)C(C)C)c1 (stereo not drawn)	-0.7	4.5	0.3	3.2%	1.7	2.3	9.9	-16.7
12	CCOC(=O)c1[nH]c(CSc2nnc(-c3ccncc3)n2CCOC)c(C(=O)OCC)c1C	·	-2.6	1.2	0.0%	4.2	-1.5	-7.0	12.1
13	CCCCC(=O)N(CCC)CCC	-0.3	-2.9	1.4	-4.5%	0.6	3.9	-8.4	-3.2
14	COc1ccc(N2CC(C(=O)N[C@@H](C)C(=O)NC(C)c3ccccc3)CC2=O)cc1 (stereo partly drawn)	-0.6	-4.4	0.0	7.4%	1.0	-6.8	-18.7	-4.6
15	CN(C)c1ccc(/C=C2\CCCc3c2nc2ccccc2c3C(=O)O)cc1	1.9	4.8	-0.7	·	0.9	-6.6	-14.7	1.9
16	O=C(Nc1ccccc1OC(F)F)C1CC(=O)N(Cc2ccccc2)C1 (stereo not drawn)	2.9	-3.3	1.0	-2.2%	-1.5	2.0	-8.9	4.0
17	CCn1nnc2cc(C(=O)NCCc3ccccc3F)ccc21	-0.5	-1.1	0.6	8.7%	-1.1	1.3	-2.7	-6.6
18	CC(=O)c1ccc(S(=O)(=O)N2CCN(c3nc(-c4cccnc4)nc4ccccc34)CC2)cc1	2.0	1.8	0.3	5.4%	·	7.1	·	·
19	N/C(Cn1cncn1)=N\NC(=O)C(=O)Nc1ccccc1	-0.6	·	0.0	-2.8%	5.5	-3.6	2.9	9.8
20	CCS(=O)c1scc(-c2ccc(Cl)cc2)c1C#N (stereo not drawn)	0.0	4.8	-0.6	4.8%	-0.3	0.6	15.2	-3.2

Full records, looked up by structure. Values in the order: MLL AF4-AF9 inh | Beta cell apopt | Bfl-1 A1 inh | Vif A3G | RanGTP-Imp inh | LANA-H2B inh | T cruzi repl | Calb FLC
Cc1cc(-c2nn(C)c(=O)c3ccccc23)ccc1CNC(=O)NC1CCCCC1 across the screens: 0.5 | 5.3 | -0.3 | · | 1.0 | 6.5 | 10.1 | 28.2
CCCNC(=S)N1CC2(C)CN(C(=O)C(=O)OCC)CC(C)(C1)C2=O across the screens: -0.9 | -6.6 | -0.4 | 2.5% | -2.0 | -5.2 | -11.9 | -7.9

(further entries)
cpd	SMILES	MLL AF4-AF9 inh	Beta cell apopt	Bfl-1 A1 inh	Vif A3G	RanGTP-Imp inh	LANA-H2B inh	T cruzi repl	Calb FLC
21	COc1ccc2c(c1)C(=O)/C(=C/C=C/c1ccccc1)CC2	·	2.0	-2.8	3.5%	1.4	5.1	28.5	33.2
22	O=C(NCc1ccccc1F)C1CCCN(S(=O)(=O)c2ccc(-n3cnnn3)cc2)C1 (stereo not drawn)	-0.8	2.4	0.5	·	1.2	1.4	-2.1	44.7
23	CN1C(=O)C2C=CC1C1C(=O)N(c3ccccc3)C(=O)C21 (stereo not drawn)	·	-3.2	0.1	16.5%	-1.8	-4.5	-11.3	1.5
24	O=C1C2C3C=CC(C2C(=O)N1c1ccccc1O)C1C2C(=O)N(c4ccccc4O)C(=O)C2C31 (stereo not drawn)	-2.3	2.2	0.9	13.7%	-3.8	0.8	-12.0	-5.6
25	N#Cc1cnc2sc3ccccc3n2c1=N	·	3.3	-0.7	-2.2%	6.1	9.2	-4.4	-3.9
26	COc1ccc(-n2c(=O)[nH]c3cc(C(=O)NCCc4ccc(OC)c(OC)c4)ccc3c2=O)c(OC)c1	0.9	-4.2	0.8	-18.1%	-1.0	1.3	-9.2	3.3
27	Cc1cc(C)cc(NC(=O)CSc2nnc(CNC(=O)c3ccco3)o2)c1	0.6	-9.9	0.5	·	1.4	3.6	3.8	-6.7
28	Cc1cc(C(C)(C)C)cc(C)c1Cn1c2[n+](c3ccc(C(F)(F)F)cc31)CCCCC2	15.2	86.4*	0.2	5.8%	-3.4	-2.5	58.8*	33.9
29	COCCn1c(SCC(=O)Nc2cccc(F)c2)nc2c([nH]c3ccccc32)c1=O	-0.5	22.8	-0.1	-4.6%	·	-0.9	-21.6	·
30	COC(=O)C(N)Cc1ccc(O)cc1 (stereo not drawn)	·	1.8	-0.8	-1.0%	3.8	5.4	-7.6	-9.5
31	COc1ccc(C(CNC(=O)c2ccc(S(=O)(=O)N(C)C)cc2)N2CCCC2)cc1 (stereo not drawn)	1.9	1.4	0.3	-4.2%	0.0	-3.1	17.8	-4.7
32	COc1ccccc1N=c1c2c([N+](=O)[O-])cc([N+](=O)[O-])cc2n(O)n1-c1ccccc1OC	·	10.1	1.4	-5.2%	1.4	-2.7	19.7	3.2
33	Cc1c(S(=O)(=O)Nc2cccc(Cl)c2)c(=O)n(C)c(=O)n1C	-5.0	3.8	0.0	?	5.5	4.0	3.3	15.9
34	O=C1NC[C@@H](Cc2cccc3ccccc23)N(CCC23CC4CC(CC(C4)C2)C3)C1=O	·	-5.8	0.7	·	8.1	-1.4	8.4	2.4
35	COCCSc1nnc(NC(=O)C2CCCCC2)s1	·	0.9	-0.5	6.4%	2.2	-1.5	4.7	-19.6
36	CC(C)CNC(=O)c1cccc(NC(=O)Cc2ccc(Cl)cc2)c1	·	2.2	0.3	8.4%	0.0	-2.5	-0.9	-27.2
37	Cc1cccc(CS(=O)(=O)Cc2ccc(C(=O)NCC3CCCO3)o2)c1 (stereo not drawn)	·	-12.9	-0.3	0.3%	6.5	-0.4	-2.0	7.9
38	CSc1nnc2n(-c3ccccc3)c(=O)c3c4c(sc3n12)CCC4	·	6.0	-0.5	-4.5%	·	4.9	·	·
39	Cc1ccc(OCC2Cn3c(nc4c3c(=O)[nH]c(=O)n4C)O2)cc1C (stereo not drawn)	1.6	0.3	-0.2	-3.0%	-0.8	-3.1	-7.4	-8.5
40	O=C(OCC(=O)N1CCCc2ccccc21)c1ccccc1[N+](=O)[O-]	1.7	-7.5	0.7	·	0.7	2.4	-9.8	-2.1
41	O=C(COc1ccccc1F)Nc1cc(S(=O)(=O)Nc2cccc(Cl)c2)ccc1O	1.2	-3.9	0.8	-6.0%	·	4.4	·	·
42	O=C(NCC(=O)N(c1ccccc1F)C(C(=O)NC1CCCC1)c1ccco1)c1ccco1 (stereo not drawn)	-0.7	-13.3	-0.4	-12.2%	0.7	0.9	5.0	-20.4
43	CN(C(=O)COC(=O)C1COc2ccccc2O1)C1(C#N)CCCCC1 (stereo not drawn)	0.9	-2.6	1.1	-5.4%	·	7.5	·	·
44	CCSc1ncc(CO)c(N)n1	1.6	-4.3	0.7	7.5%	4.2	-0.6	-13.4	1.1
45	Cc1cc(Nc2ccccc2)n(-c2cccc(Cl)c2)n1	·	-3.3	0.6	-6.1%	0.2	-1.0	-13.1	-29.3
46	Cn1nnnc1SCC(=O)Nc1ccccc1N1CCCCC1	·	-0.3	-0.6	25.6%	-4.9	-4.9	-2.5	-6.3
47	CS(=O)(=O)N(CC(=O)NCCSCc1cccc(Cl)c1)c1ccccc1F	3.1	-2.0	-0.1	-2.3%	1.2	0.4	17.7	13.9
48	CC(=O)Nc1ccc(NC(=O)c2cccc3ccccc23)cc1	-4.2	-6.0	-0.6	·	-3.1	4.0	-5.6	-1.2
49	COCCOc1ccc(C(F)(F)F)cc1NC(=O)Cc1ccc(S(=O)(=O)N2CCOCC2)s1	-1.9	15.0	0.3	-1.2%	1.1	0.6	1.0	-2.2
50	CCCCC(=O)Nc1ccccc1N1CCOCC1	1.2	2.1	-0.2	·	2.5	0.9	-13.4	-6.5
51	O=S(=O)(c1ccc(-c2nnc(SCc3nnc(-c4ccccc4)o3)o2)cc1)N1CCCC1	·	-4.5	0.6	-4.0%&25.1%	-5.3	0.2	11.5	-5.9
52	CCN(CC)CCOc1ccccc1C(C)=O	0.2	-2.6	-0.3	-4.7%	6.9	-1.4	-4.9	7.7
53	CC(=O)c1ccc(S(=O)(=O)N2CCN(CCOc3ccccc3)CC2)cc1	1.5	-1.3	0.0	·	·	3.8	·	·
54	Cc1cccc(N2C(=O)/C(=C\c3ccc(OC(F)F)cc3)c3ccccc3C2=O)c1	·	-7.8	0.0	·	3.5	2.5	-1.1	?
